# Cruzain Triton = blocks cruzain activity in presence of Triton detergent; P25779; purified cruzain, Z-FR-AMC fluorescence, 0.01% Triton; Potency, µM, inactives show max response, negative = inhibition, hits mostly inhibitors; 200,000 compounds, 0.43% hits;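 further: plate controls were neutral wells for no effect and buffer without enzyme for full effect; nearly all actives have a fitted effect of over 40% in size; top concentration of the series not given in the record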
# Target sequence (P25779 123-467 limits assumed): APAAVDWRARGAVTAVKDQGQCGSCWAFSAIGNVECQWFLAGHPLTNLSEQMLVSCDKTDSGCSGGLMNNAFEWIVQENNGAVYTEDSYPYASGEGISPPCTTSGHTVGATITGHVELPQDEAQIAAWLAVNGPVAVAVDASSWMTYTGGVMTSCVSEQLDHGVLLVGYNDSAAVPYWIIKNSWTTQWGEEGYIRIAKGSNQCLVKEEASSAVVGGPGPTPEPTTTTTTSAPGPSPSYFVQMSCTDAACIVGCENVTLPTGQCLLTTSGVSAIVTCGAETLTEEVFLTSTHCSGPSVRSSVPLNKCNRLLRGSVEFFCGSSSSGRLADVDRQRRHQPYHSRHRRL
#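 Purified cruzain (1.5 nM final) was preincubated with compounds for 15 min at room temperature in 100 mM sodium acetate pH 5.5, 5 mM DTT, 0.01% Triton X-100. Reaction started with 2 uM Z-FR-AMC; AMC fluorescence change over 60 s gave activity.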
# NS1 function inh = blocks influenza NS1 protein function; 270,000 compounds, 0.4% hits; S. cerevisiae slowed by influenza A NS1, growth recovery by OD600; Potency, µM (doses to about 46.1 µM), for the others: at the highest dose activity, positive = more growth; active means well fitted rising curve with a large enough effect; inconclusive means small, poorly fitted or top-dose-only effect; inactive means no such curve, though single readings can be large or run the other way; further: nearly all actives have a fitted effect of over 50% in size
#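 Compounds were scored for reversing the slow growth caused by influenza A NS1 in S. cerevisiae, measured by optical density at 600 nm. Assay medium contained 2% galactose at pH 6.0; NS1-free yeast of the same strain were the positive control.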
# MARV entry inh = Marburg virus entry inhibition. Marburg virus pseudotyped entry inhibition, cell reporter; control for the full effect not named in the record; about a third of the inactives were read at about 46 µM. Potency, µM (doses to about 37.8 µM), for the others: top-dose activity change, negative = inhibition, hits mostly inhibitors. 300,000 compounds, 1.8% hits. AID 540276; active = well fitted inhibition curve with a large enough effect; inconclusive = small, poorly fitted or top-dose-only effect, or effect the other way; inactive = flat fitted curve, though single readings scatter; tested in HEK293 cells; about a fifth of its hits are not listed in these tables; further: on the % scale 0 is the no-effect control and ±100 the full control effect; luciferase read-out
# SARS PLpro yeast = inhibitors of SARS-CoV papain-like protease in yeast | Potency, µM (series often up to 32.9 µM), for the others: at the highest dose activity, positive = growth rescue | AID 485353 | 330,000 compounds, 0.19% hits | S. cerevisiae expressing SARS-CoV PLpro, growth rescue; control for the full effect not named in the record; active means well fitted rising curve with a large enough effect; inconclusive means small, poorly fitted or top-dose-only effect; inactive means no such curve, though single readings can be large or run the other way; further: 0% is about no effect; nearly all actives have a fitted effect of over 55% in size; growth read by luminescence after 48 h
# RE007 growth inh = less growth of the S. pombe RE007 Vpr strain. Potency, µM (highest dose often 92.2 µM), for inactives: at the highest dose activity change, negative = less growth. S. pombe RE007 Vpr strain, BacTiter-Glo ATP luminescence, 24 h; control for the full effect not named in the record. 360,000 compounds, 0.21% hits; active = well fitted falling curve with a large enough effect; inconclusive = small, poorly fitted or top-dose-only effect; inactive = no such curve, though single readings can be large or run the other way;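 further: on the % scale 0 is the no-effect control and ±100 the full control effect; nearly all actives have a fitted effect of over 50% in size; the assay follows cell death caused by Vpr and the record does not say whether a fall means rescue or toxicity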
#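 Fission yeast RE007 carrying one integrated HIV-1 vpr copy, seeded at OD 0.01 in PMG+AL medium with 23 nL pinned compound. Grown 24 h at 30 degrees; viability read by BacTiter-Glo luminescence after 5 min.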
# 2A StopGo = FMDV 2A StopGo reporter, luciferase signal; Potency, µM (top dose mostly 57.9 µM), without a hit: at the highest dose signal change, negative = less light; 410,000 compounds, 1.2% hits; human cells with a luciferase reporter of 2A StopGo recoding; control for the full effect not named in the record; active = well fitted falling curve with a large enough effect; inconclusive = small, poorly fitted or top-dose-only effect; inactive = no such curve, though single readings can be large or run the other way; tested in HEK293T cells; further: on the % scale 0 is the no-effect control and ±100 the full control effect; nearly all actives have a fitted effect of over 45% in size; luciferase light after 4 h
# LASV entry inh = blocks Lassa virus binding to or entry into cells | Potency, µM (top dose mostly 37.9 µM), for inactives: at the top dose activity change, negative = inhibition, hits mostly inhibitors | 300,000 compounds, 1.2% hits | Lassa virus pseudotype entry inhibition, cell reporter; control for the full effect not named in the record; active means well fitted inhibition curve with a large enough effect; inconclusive means small, poorly fitted or top-dose-only effect, or effect the other way; inactive means flat fitted curve, though single readings scatter; tested in HEK293 cells; further: on the % scale 0 is the no-effect control and ±100 the full control effect; nearly all actives have a fitted effect of over 50% in size; luciferase read-out
# Cruzain noTriton = cruzain (T. cruzi) inhibition without detergent. P25779. purified cruzain, Z-FR-AMC fluorescence, no detergent. Potency, µM, for the others: max response, negative = inhibition, usual class: inhibitors. 200,000 compounds, 2.3% hits;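 further: plate controls were enzyme without inhibitor for no effect and buffer without enzyme for full effect; nearly all actives have a fitted effect of over 40% in size; top concentration of the series not given in the record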
#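 Purified cruzain at 1.5 nM, pre-incubated 15 min with compound at room temperature in 100 mM sodium acetate pH 5.5, 5 mM DTT, 0.00005% Triton X-100. Reaction started with 2 uM Z-FR-AMC; AMC fluorescence increase over 60 s gives rate.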
# * hit, by the source's call; ? = inconclusive; . = not tested or not shown; & = joins results of further samples; [ ] = remark or other dose. Unless noted, the call rests on the fitted dose curve; in most records, active means well fitted curve in the direction sought with a large enough effect; inconclusive means small, poorly fitted or top-dose-only effect, or another doubt; inactive means no such curve, though single readings can be large; an effect the other way counts as inactive or inconclusive. Potency means the concentration at half of the fitted maximal effect.
compound	Cruzain Triton	NS1 function inh	Cruzain noTriton	MARV entry inh	RE007 growth inh	SARS PLpro yeast	2A StopGo	LASV entry inh
COc1ccc(CCNC(=O)Cn2nc([N+](=O)[O-])c(Br)c2C)cc1OC	-2.6%	5%	-4%	-2%	-2%	?	-5%	1%
Cc1cccc([C@@H]2[C@@H]3C(=O)N(Cc4ccccc4)C(=O)[C@@H]3[C@]3(C)C(=O)N(c4ccc(C(F)(F)F)cc4)C(=O)N23)c1	.	8%	.	.	12%	-3%	?	.
COc1ccc(CNC(=O)CN(C(=O)c2snc(C(N)=O)c2N)c2ccccc2F)cc1	.	2%	.	-29%[46.1 µM]	7%	4%	-14%	?
COC(=O)c1ccc(NC(=O)c2ccc(N(C)S(C)(=O)=O)cc2)cc1	7.2%	11%[9.22 µM]	-13%	?	5%	0%	.	-18%
COC(=O)/C=C(\C)N=Nc1c(O)[nH]c2ccccc12	.	-1%	.	19%[46.1 µM]	-6%	-1%	17%	?
O=[N+]([O-])/C=C1/CCCCCN1	.	-2%	.	-2%[46.1 µM]	-18%	0%	7%	.
O=C(Cc1cccc2ccccc12)NNC(=O)c1cccs1	-0.5%	-7%	7%	?	-4%	-1%	41%[activator]	27%
OCCNc1c2c(nc3ccccc13)CCCC2	-1.9%	2%	12%	-20%[46.1 µM]	7%	8%	-22%	2%
Cc1cc(C)c(NS(=O)(=O)c2ccc3c(c2)NC(=O)CC(=O)N3)c(C)c1	-0.5%	17%	11%	?	13%	20%	?	9%
Cc1ccc(C(=O)NNC(=O)c2csc(N3CCOCC3)n2)s1	.	.	.	24%	-4%	3%	0%	14%
O=C1c2cccc3c(Nc4ccccc4Cl)c([N+](=O)[O-])cc(c23)C(=O)N1CCO	-9.9%	-19%	?	?	15%	-5%	?	?
O=C(/C=C\c1ccco1)Nc1nc(-c2ccccc2)cs1	0.6%	24%	10%	?	18%	-49%	24%	?
CCN(CC(=O)Nc1sc2c(c1C#N)CCCC2)CC(=O)NC1CCS(=O)(=O)C1 (stereo not drawn)	.	-6%	.	14%[46.1 µM]	-14%	1%	2%	2%
CCN(C(=O)COC(=O)CSc1ccc(C)c(C)c1)C1CCS(=O)(=O)C1 (stereo not drawn)	.	2%	.	-10%	-7%	-2%	-8%	18%
Cc1cc(C)c2oc(-c3ccc(Cl)c(NC(=O)c4cccs4)c3)nc2c1	0.3%	.	-4%	?	.	.	24%	?
O=C(C[n+]1ccccc1)N/N=C/c1ccc(Cl)c(Cl)c1	.	1%	.	2%	-5%	3%	-18%	-2%
Cc1ccc(NC(=O)Cn2c(-c3nonc3N)nc3ccccc32)c(Br)c1	0.1%	.	-8%	3%[46.1 µM]	.	.	-5%	2%[46.1 µM]
C=CCN1C(=O)C(O)(CC(=O)c2ccc(N)cc2)c2ccccc21 (stereo not drawn)	5.7%	-4%	-20%	3%	-16%	1%	3%	2%
O=C(O)c1ccc(C2NCC(c3ccccc3Cl)c3c2[nH]c2ccccc32)cc1 (stereo not drawn)	.	11%	.	?	8%	-1%	-26%	21%
CCN(CC)C(=O)Cn1c(=O)n(-c2ccc(C)c(C)c2)c(=O)c2c(C)c(C(=O)N(CC)CC)sc21	1.0%	.	?	.	.	.	-5%	-1%[46.1 µM]
COc1ccccc1NS(=O)(=O)c1ccc(C)c(C(=O)NCC2CCCO2)c1 (stereo not drawn)	8.7%	0%	0%	-4%	-2%	-1%	-5%	24%
CCOc1ccccc1NC(=O)N1CCN(S(C)(=O)=O)CC1	.	1%	.	24%[46.1 µM]	4%	0%	0%	17%
O=C(Nc1nc2ccccc2s1)c1ccccc1	.	-4%	.	?	?	-6%	-42%	?
Cc1cc(NC(=O)CCN2C(=O)/C(=C/c3ccccc3Cl)SC2=S)no1	1.5%	-9%	-29%	-3%	-10%	10%	-15%	15%
Cc1ccc(N=CNc2ccc(C)cc2C)c(C)c1	.	2%	.	-4%[46.1 µM]	-14%	7%	18%	9%
COc1ccc(N2CCN(C(=O)C(=O)c3c(C)[nH]c4ccccc34)CC2)cc1	.	-2%	.	.	-4%	2%	-12%	.
CC(=O)Nc1ccc(C(=O)NNC(=O)C2C3CCCCC32)cc1 (stereo not drawn)	.	-8%	.	19%[46.1 µM]	-9%	2%	4%	?
COc1ccc(C(=O)/C=C/c2ccc(OC)cc2OC)c(O)c1	.	1%	.	.	10%	0%	23%	.
CCOC(=O)COn1c(=O)c(-c2ccc(Cl)cc2)[n+]([O-])c2ccccc21	.	-7%	.	.	8%	1%	20%	.
CC(=O)Nc1ccc(SCC(=O)c2cc(C)n(C)c2C)cc1	-4.5%	-5%	10%	3%	4%	-1%	34%[activator]	?
CC(C)c1ccccc1NC(=O)C1CN(S(=O)(=O)c2ccccc2)CCN1S(=O)(=O)c1ccccc1 (stereo not drawn)	-4.4%	?	7%	?	6%	7%	23%	?
O=C(CNC(=O)c1nc[nH]c1C(=O)N1CCN(c2ccccc2)CC1)OCc1ccccc1	.	-3%	.	.	3%	2%	3%	.
Cc1nnnn1-c1cccc(C(=O)O)c1	0.1%	4%	-1%	13%	7%	-1%	-17%	?
Cc1ccc(N(C(=O)CS(=O)CC(=O)Nc2ccc(F)cc2)C(C(=O)NC2CCCCC2)c2ccco2)cc1 (stereo not drawn)	7.7%	13%	?	?	18%	18%	-6%	-21%
O=C1COc2ccc(C(=O)COc3ccc(Cl)cc3Br)cc2N1	.	.	.	?	8%	9%	-8%	-5%
Cc1ccc(NC(=O)c2nc(S(=O)(=O)Cc3ccc(F)cc3)ncc2Cl)cc1C	-6.6%	.	-3%	?	.	.	28µM*	?
Cc1ccc(-c2csc3nc[nH]c(=O)c23)cc1C	.	-20%	.	7%[46.1 µM]	-12%	-8%	-20%	?
CC(NC(=O)CCNS(=O)(=O)c1ccc2c(c1)c(=O)n(C)c(=O)n2C)c1ccccc1 (stereo not drawn)	-2.9%	-6%	5%	-1%	-4%	1%	-8%	-16%
COc1ccc(OC)c(-n2nnnc2SCC(=O)Nc2cc(C)ccc2OC)c1	-4.3%	9%	-1%	13%[46.1 µM]	-7%	16%	-17%	-2%
CCCCOc1ccc(CN2CCN(CC)CC2)cc1	-0.8%	-2%	-11%	-1%	-5%	-3%	7%	-2%
C/C(=N\NC(=O)Cc1csc(N2CCOCC2)n1)c1ccccc1	3.3%	3%	10%	-1%	1%[3.69 µM]	?	-27%	?
O=C(N/N=C/C=C/c1ccc2c(c1)OCO2)C(O)c1ccccc1 (stereo not drawn)	.	3%	.	-11%	3%	0%	53%[activator]	-7%
CC(C)C(NC(=O)c1ccc2c(c1)OCO2)C(=O)N/N=C/c1cccs1 (stereo not drawn)	-3.8%	-4%	2%	-11%	1%	-11%	9%	?
COCCN1CCN(C(=O)C2CCC(=O)N(Cc3ccccc3F)C2)CC1 (stereo not drawn)	.	7%	.	-2%	0%	-6%	13%	7%
COc1cc(/C(C#N)=C/c2ccccc2)c([N+](=O)[O-])cc1OC	-9.1%	0%[9.22 µM]	7%	-13%	4%	-18%	?	3%
Cc1cc(OCC(=O)N2CCCC2)cc(C)c1Cl	-1.1%	-9%	5%	-4%	-23%	-7%	0%	-11%
CCOc1ccc2nc(SC3CC(=O)N(c4cccc(OC)c4)C3=O)sc2c1 (stereo not drawn)	-4.6%	-31%	2%	?	-3%	-19%	13%	27%
CCN(CC(=O)Nc1cc(Cl)ccc1C)C(=O)c1oc2ccc(OC)cc2c1C	.	.	.	-28%	6%	1%	-2%	8%
CC(C)c1nc(NCc2ccccc2)c(C#N)c2c1CCCC2	-11%	6%	0%	-4%	-5%	3%	-21%	11%
O=C1C(Cl)=C(N2CCOCC2)C(=O)N1c1cccc(C(F)(F)F)c1	.	4%	.	3%[46.1 µM]	-15%	-1%	-12%	-15%[46.1 µM]
c1ccc2cc(CSCc3nc4ccccc4[nH]3)ccc2c1	-15%	-45%	-21%	?	.	-65%	-10%	-17%
Cc1ccc(C)c(N2CCN(C(=O)CCS(=O)(=O)c3ccc4c(c3)CCN4C(=O)C3CC3)CC2)c1	.	11%	.	.	4%	-5%	-23%	.
O=c1cc(/N=C/c2coc3c(ccc4ccccc43)c2=O)[nH]c(=S)[nH]1	-5.6%	21%	7.9µM*	-10%	-1%	15%	19%	10%
CCc1ccc(OCc2nnc(SCCN3CCOCC3)n2CC)cc1	4.8%	-14%	3%	0%&0%	2%	?	3%	?
Cc1ccc(OCc2nnc(SCC(=O)NCc3ccco3)n2C)cc1	1.1%	10%	2%	4%[46.1 µM]	-6%	-1%	-9%	-8%
Cc1cccc(NC(=O)Nc2cccc3ccccc23)c1	.	15%	.	.	1%	-4%	-13%	.
CCN(CC)CCN1C(=O)C2C3c4ccccc4C(c4ccccc43)C2C1=O (stereo not drawn)	3.6%	1%	9%	?	0%	7%	?	1%
CCOc1ccc(-c2nnc(-c3ccco3)o2)cc1	-3.8%	-10%	-6%	6.5µM*	?	-10%	.	5.8µM*
Cc1ccc(/C=N/c2sc3c(c2C#N)CCCCC3)o1	-5.7%	-13%	-4%	-17%	-17%	3%	?	?
CC(=O)N1CCOc2ccc(S(=O)(=O)Nc3cccc(C)n3)cc21	.	10%	.	.	-4%	4%	20%	.
CCN(c1ccccc1)S(=O)(=O)c1ccc(NC(=O)c2nc(SC)ncc2Cl)cc1	-5.8%	.	-25%	?	.	.	-25%	?
O=C1c2ccccc2C(=O)N1CCCCSc1nc2ccccc2c(=O)n1CCCN1CCOCC1	.	.	.	?	10%	-5%	-19%	?

# Source: PubChem (National Center for Advancing Translational Sciences (NCATS))
